Screens from PubChem BioAssay.
Ecoli rRNA inh – reduced GFP signal of wild-type E. coli, primary screen, bacterial rRNA inhibitor project, GFP/RFP fluorescence, OD600, single point; E. coli WT GFP vs humanized-ribosome RFP mutants, 24 h; active compounds read low; DMSO median 0, no signal -100; GFP signal change (wild-type ribosome), % (test concentration not listed); 350,000 compounds, 1.6% hits;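 active = significant combined selectivity score with lowered wild-type GFP, culture density cut under 30%, mutant RFP and density less affected; inactive = any of these conditions unmet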; note: one replicate is shown; some compounds called inactive have numbers as strong as hits
HNF4A DNA FP – change in binding of human HNF4A to DNA, primary screen, biochemical, fluorescence polarization, FITC-DNA; 1 h; activity change, % at 10 µM; 360,000 compounds, 0.3% hits; AID 1224865, 2016; in the data active = activity change above about 30%, passing the limit was not always enough;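 note: controls were the assay level and a saturating level of protein; the project sought stronger binding though the title names inhibitors; some compounds called inactive have numbers as strong as hits; positive values seem to mean higher polarization but the record does not say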
Target sequence (P41235 whole entry, looked up): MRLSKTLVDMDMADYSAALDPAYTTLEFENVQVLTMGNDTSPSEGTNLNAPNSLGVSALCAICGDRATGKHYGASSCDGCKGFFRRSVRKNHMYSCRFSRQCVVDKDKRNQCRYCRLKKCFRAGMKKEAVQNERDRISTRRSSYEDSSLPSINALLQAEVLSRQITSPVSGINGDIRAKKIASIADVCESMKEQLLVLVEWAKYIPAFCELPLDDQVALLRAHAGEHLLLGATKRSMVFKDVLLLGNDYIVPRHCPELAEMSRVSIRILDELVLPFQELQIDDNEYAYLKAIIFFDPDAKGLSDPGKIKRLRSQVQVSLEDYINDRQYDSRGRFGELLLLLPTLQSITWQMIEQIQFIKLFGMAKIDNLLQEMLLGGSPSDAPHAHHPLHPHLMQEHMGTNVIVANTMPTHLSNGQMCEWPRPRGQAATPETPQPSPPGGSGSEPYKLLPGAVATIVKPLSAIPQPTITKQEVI
Vif A3G – inhibitors of Vif binding to APOBEC3G peptide, primary screen, biochemical, TR-FRET, GST-Vif 1-94, biotin-A3G peptide, dose response retest (AID 1117319). Virion infectivity factor (Human immunodeficiency virus type 1 group M subtype B (isolate …. TR-FRET GST-Vif / biotin-A3G peptide binding; higher % means a stronger effect; test concentration not given here; strong numbers were not always called active. one-dose inhibition, %; IC50 in µM for titrated hits. 260,000 compounds, 0.57% hits;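 active = above the screen mean plus three standard deviations and confirmed in dose response; inconclusive = results disagree or hit not tested in dose response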;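 note: Vif residues 1-94 fused to GST binding biotinylated APOBEC3G peptide 110-148; 0% = full assay without inhibitor and 100% = GST in place of GST-Vif; retest series ran down from 100 µM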
ALR inh – inhibitors of human ALR sulfhydryl oxidase, primary screen, biochemical, H2O2 detection, HRP-luminol luminescence, single point | FAD-linked sulfhydryl oxidase ALR (Homo sapiens), P55789 | purified ALR, DTT oxidation | inhibition, % (test concentration not listed) | 290,000 compounds, 3.8% hits | AID 485317, 2010;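 active = mean and each replicate at 75% or more; inconclusive = only one of the two met; inactive = neither met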;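 note: stock transfer was 7.5 nL into about 7.5 µL; 0% = neutral wells and 100% = wells with inactivated enzyme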
Target sequence (P55789 whole entry, looked up): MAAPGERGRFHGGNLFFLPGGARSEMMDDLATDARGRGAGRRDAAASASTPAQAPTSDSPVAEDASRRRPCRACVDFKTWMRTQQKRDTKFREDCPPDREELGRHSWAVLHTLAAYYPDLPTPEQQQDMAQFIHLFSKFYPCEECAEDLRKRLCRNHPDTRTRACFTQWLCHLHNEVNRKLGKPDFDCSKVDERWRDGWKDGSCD
MLL AF4-AF9 inh – inhibitors of AF4 peptide binding to AF9, primary screen, biochemical, AlphaScreen, biotin-AF4 peptide, FLAG-AF9, single point | Protein AF-9 (Homo sapiens), P42568 | 350,000 compounds, 0.47% hits | inhibition, % at 10 µM;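 active = every replicate reaching a set inhibition limit, whatever the replicate mean, cut at about 25% in these data; inconclusive = mean inhibition reaches that limit but some replicates miss it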;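 note: 0% = plate neutral control median and 100% = total signal loss; the record names both 10 and 1 µM as test concentration; the first replicate is given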
FGF22 binding – binders of human FGF22 protein, primary screen, FGF22 synaptogenesis inhibitor project, biophysical, thermal shift, single point; AID 651658, 2012; recombinant FGF22 thermal shift, SYPRO orange fluorescence; percent of sucrose octasulfate shift, DMSO zero; 340,000 compounds, 1.5% hits; calls only at 9.99 µM;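 active = melting point raised past a set limit in the mean and every replicate; inconclusive = no clear call; three in four hits are not shown here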
Target sequence (Q9HCT0 whole entry, looked up): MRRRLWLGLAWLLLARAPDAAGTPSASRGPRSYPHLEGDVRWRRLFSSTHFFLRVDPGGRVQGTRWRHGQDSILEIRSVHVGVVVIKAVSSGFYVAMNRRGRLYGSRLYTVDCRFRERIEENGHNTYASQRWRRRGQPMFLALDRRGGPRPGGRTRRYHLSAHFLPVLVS
Ecoli growth – E. coli growth inhibition, primary screen, OD600; Escherichia coli growth, 23 h; active compounds read low; 330,000 compounds, 0.21% hits; OD600 absorbance (no concentration beside the values); AID 1053175, 2014;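 active = OD600 absorbance below the run mean of sample wells minus 3.6 SD, in any replicate, cut at about 0.56 in these data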;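 note: stock transfer was 300 nL into about 60 µL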
Ecoli rRNA inh OD600 – also measured in Ecoli rRNA inh; calls as there; OD600 change, %; measured here: OD600 growth;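 optical density of the mix in the first replicate; 0 = DMSO median and -100 = no signal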
Ecoli rRNA inh RFP – further read-out of Ecoli rRNA inh, marked with its call; RFP signal change, %; measured here: RFP humanized mutant strains;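 first replicate; 0 = DMSO median and -100 = no signal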
The depositor's hits bear a star; i = inactive; ? = inconclusive; nt = no result given; & = joins results of further samples.

SMILES | Ecoli rRNA inh | Ecoli rRNA inh OD600 | Ecoli rRNA inh RFP | HNF4A DNA FP | Vif A3G | ALR inh | MLL AF4-AF9 inh | FGF22 binding | Ecoli growth
Fc1ccc2cnc(-c3ccccc3)c(-c3cccc(C(F)(F)F)c3)c2c1 | 7 | 2 | 2.9 | 1.7 | nt | -2 | 2.2 | i | 0.69
CCOC(=O)CCCNC(=O)CCNC(=O)c1ccc(OC)cc1 | nt | nt | nt | -2.4 | 1% | -3 | nt | nt | 0.69
CC(=O)c1cccc(CN2CCC(C(=O)Nc3cccc(-c4ccn[nH]4)c3)CC2)c1 | 1 | 0 | 1.0 | -0.3 | nt | 5 | -0.4 | i | 0.69
O=C(C[C@@H]1CC[C@H]2[C@@H](COC[C@H](O)CN2Cc2cc(F)ccc2F)O1)N[C@H]1CCN(Cc2ccccc2)C1 | 3 | 8 | 3.0 | nt | nt | nt | 6.8 | i | nt
CCSc1nnc(NC(=O)COc2ccc(Cl)cc2)s1 | 8 | 8 | 1.7 | -2.0 | -16% | -3 | -20 | i | 0.7
CCCCNC(=O)C[C@@H]1C[C@@]2(C(=O)OCC)CCC=C2N(CCC2=CCCCC2)C1=O | nt | nt | nt | -2.1 | nt | nt | 0.6 | i | nt
O=C(Nc1cccnc1)c1cc2cc(Br)ccc2o1 | 6 | 18 | 14 | -0.6 | nt | nt | -21 | i | 0.64
Nc1[nH]c(C(=O)c2ccccc2)c(-c2cccc3ccccc23)c1C(=O)NCc1ccccc1 | 4 | -2 | 9.0 | 1.6 | nt | nt | -1.0 | i | nt
COc1ccc(CN(C)C[C@H]2OCCCC[C@@H](C)Oc3ccc(NS(=O)(=O)c4cn(C)cn4)cc3C(=O)N([C@@H](C)CO)C[C@H]2C)cc1 | -5 | 6 | -0.5 | nt | nt | nt | 3.3 | i | nt
O=C(Cn1nnc(-c2ccccc2)n1)NCC(=O)Nc1ccc(F)c(F)c1F | 4 | 18 | 1.4 | 9.8 | nt | nt | -2.9 | i | 0.68

Six neighbouring records out of the list so far:
SMILES | Ecoli rRNA inh | Ecoli rRNA inh OD600 | Ecoli rRNA inh RFP | HNF4A DNA FP | Vif A3G | ALR inh | MLL AF4-AF9 inh | FGF22 binding | Ecoli growth
Fc1ccc2cnc(-c3ccccc3)c(-c3cccc(C(F)(F)F)c3)c2c1 | 7 | 2 | 2.9 | 1.7 | nt | -2 | 2.2 | i | 0.69
CCOC(=O)CCCNC(=O)CCNC(=O)c1ccc(OC)cc1 | nt | nt | nt | -2.4 | 1% | -3 | nt | nt | 0.69
CC(=O)c1cccc(CN2CCC(C(=O)Nc3cccc(-c4ccn[nH]4)c3)CC2)c1 | 1 | 0 | 1.0 | -0.3 | nt | 5 | -0.4 | i | 0.69
O=C(C[C@@H]1CC[C@H]2[C@@H](COC[C@H](O)CN2Cc2cc(F)ccc2F)O1)N[C@H]1CCN(Cc2ccccc2)C1 | 3 | 8 | 3.0 | nt | nt | nt | 6.8 | i | nt
CCSc1nnc(NC(=O)COc2ccc(Cl)cc2)s1 | 8 | 8 | 1.7 | -2.0 | -16% | -3 | -20 | i | 0.7
CCCCNC(=O)C[C@@H]1C[C@@]2(C(=O)OCC)CCC=C2N(CCC2=CCCCC2)C1=O | nt | nt | nt | -2.1 | nt | nt | 0.6 | i | nt

More results:
SMILES | Ecoli rRNA inh | Ecoli rRNA inh OD600 | Ecoli rRNA inh RFP | HNF4A DNA FP | Vif A3G | ALR inh | MLL AF4-AF9 inh | FGF22 binding | Ecoli growth
Cc1ccc2occ(/C=N/NC(=O)[C@@H](N)Cc3ccccc3)c(=O)c2c1 | 6 | 5 | -0.5 | -5.3 | 5% | 5 | -3.5 | i | nt
O=C(COC(=O)/C=C/c1ccccc1Cl)NC1CCCC1 | 11 | 14 | 0.3 | 0.0 | ? | 3 | -2.3 | i | 0.68
COc1ccc(NC(=O)C(OC(=O)c2cnc(C)cn2)c2ccccc2)cc1Cl (centres undefined) | 6 | 6 | 2.4 | 0.6 | 7% | -9 | 0.1 | i | 0.7
CCn1c(SCC(=O)Nc2cc(S(=O)(=O)N3CCOCC3)ccc2OC)nnc1-c1ccncc1 | 6 | 12 | -3.6 | 4.3 | 29% | -19 | 0.2 | i | 0.64
O=C(NCC(=O)N(c1ccccc1)C(C(=O)NC1CCCC1)c1cccnc1)c1cccs1 (centres undefined) | nt | nt | nt | 0.9 | 29% | -3 | nt | nt | 0.7
COc1ccc(CCNC(=O)CNS(=O)(=O)c2ccc(Br)s2)cc1OC | nt | nt | nt | 0.8 | -8% | -7 | nt | nt | 0.65
CC(=O)Nc1ccc(NS(=O)(=O)c2ccc(OC(C)C(=O)N3CCOCC3)cc2)cc1 (centres undefined) | 4 | 9 | -1.0 | 1.7 | -1% | -6 | ? | i | 0.62
COc1cc2ccccc2cc1C(=O)N1CC(C)OC(C)C1 (centres undefined) | 7 | 14 | 0.5 | -3.5 | 9% | nt | -6.1 | i | 0.69
COc1ccc(C2CC(=O)Oc3ccc(C(C)(C)C)cc32)cc1 (centres undefined) | -6 | 0 | 13 | 0.6 | nt | -7 | -29&-4.3 | i | 0.66
CCc1noc(C)c1C(=O)OCC(=O)N(C)c1c(N)n(Cc2ccccc2)c(=O)[nH]c1=O | 12 | 6 | 5.4 | -1.8 | -3% | -38 | -0.8 | i | 0.63
CCCC1Oc2ccccc2C(=O)N(CC(=O)c2ccc3c(c2)OCCO3)C1=O (centres undefined) | 0 | 4 | -2.1 | 0.6 | nt | -4 | 0.6 | i | 0.7
Cc1[nH]c2ccccc2c1C(=O)C(=O)N(C)C1CCCCC1 | -17 | -7 | 1.5 | 4.7 | nt | -4 | -1.5 | i | 0.71
COc1ccc(CN(C)C[C@@H]2Oc3ccc(NC(=O)c4ccncc4)cc3CC(=O)N([C@H](C)CO)C[C@H]2C)cc1 | -2 | -2 | 0.8 | nt | nt | nt | -1.8 | i | nt
CCOc1cc(/C=C2\SC(N)=NC2=O)ccc1O | 2 | 4 | 8.2 | 6.1 | -6% | 98* | 2.4 | i | 0.66
CSc1ccc(/C=C/C(=O)OCC(=O)NC2CCCC2)cc1 | 9 | 19 | 0.4 | 1.5 | nt | nt | -2.8 | i | nt
CCOC(=O)C(CCCOc1ccc(C(C)CC)cc1)C(=O)OCC (centres undefined) | nt | nt | nt | -2.0 | 10% | -12 | nt | nt | 0.71
CCC(CC)C(=O)Nc1cccc(/C(C)=N\NC(=O)c2ccc(C)s2)c1 | nt | nt | nt | -0.3 | -3% | -3 | nt | nt | nt
CC(C)NC(=O)N1CCCCN2[C@H](C1)[C@H](c1ccc(C#C[C@@H](C)O)cc1)[C@@H]2CO | 5 | 21 | 2.2 | nt | nt | nt | -7.2 | i | nt
Cc1[nH]c2c(Cl)cccc2c1CCNC(=O)C1CCCCC1C(=O)OCC(F)(F)F (centres undefined) | nt | nt | nt | 0.7 | -1% | nt | nt | nt | 0.67
Cc1cc(C)n(Cc2ccc(C(=O)N/N=C/c3ccc(-c4ccc([N+](=O)[O-])cc4)o3)o2)n1 | -13 | 23 | 2.3 | 49 | nt | 71 | -2.3 | i | nt
N#CC1=C(N)OC2=C(C(=O)CCC2)C1c1ccccc1 (centres undefined) | 1 | 2 | -1.7 | 8.5 | 2% | 12 | nt | nt | 0.67
CCOC(=O)c1ccc(S(=O)(=O)N2CCC(C(=O)Nc3nnc(C)o3)CC2)cc1 | 13 | 22 | 2.5 | -0.8 | 4% | nt | -0.5 | i | 0.67
Cc1ccc(S(=O)(=O)Nc2ccc(OCC(=O)N3CCOCC3)cc2)c(C)c1NS(C)(=O)=O | nt | nt | nt | -0.5 | 3% | -2 | 1.5 | i | 0.66
N#CCSc1nc2ccccc2c(=O)n1CCCC(=O)NCc1ccco1 | 19 | 6 | 3.2 | -3.5 | -3% | -5 | -4.3 | i | 0.7
CC(C)NC(=O)Nc1ccc2c(c1)CC(=O)N([C@@H](C)CO)C[C@@H](C)[C@@H](CN(C)C(=O)Nc1ccc3c(c1)OCO3)O2 | 1 | -1 | -1.1 | nt | nt | nt | -0.2 | i | nt
CN1CCC(N(C)C(=O)c2cc(-c3ccc(F)cc3)nc3ccccc23)CC1 | 7 | -3 | 8.9 | -0.6 | -1% | -6 | 5.1 | i | 0.64
O=C(CCn1nc(-c2ccc(Cl)cc2)c2ccccc2c1=O)NN1CCOCC1 | 4 | 1 | -0.2 | -2.8 | nt | 7 | -3.8 | i | 0.67
C[C@@H]1CN(S(=O)C(C)(C)C)[C@H](CCO)/C1=C\c1ccccc1 (some centres undefined) | 4 | 3 | 4.2 | 2.9 | 0% | nt | -1.0 | i | nt
Cc1ccn2c(C(=O)N/N=C/c3ccc(Cl)cc3)c(C)nc2c1 | -2 | 9 | -0.3 | 0.4 | -7% | nt | -1.7 | i | nt
Cc1cccc(N=NC(=S)NNc2cccc(C)c2)c1 | -20* | -6.8* | -1.5* | -0.3 | -1% | nt | 36* | i | 0.65
CC(C)NC(=O)C(=O)NNC(=O)C12CC3CC(CC(C3)C1)C2 | nt | nt | nt | 1.3 | 2% | -4 | nt | nt | 0.74
O=C(O)C[C@H]1CC[C@H](NC(=O)Nc2cc(F)ccc2F)[C@@H](CO)O1 | 1 | -1 | -3.1 | nt | nt | nt | -0.6 | i | nt
COC(=O)[C@]1(C)N[C@H](c2ccc(-c3ccc(Cl)c(Cl)c3)c(OC)c2)[C@@H]2C(=O)N(C)C(=O)[C@@H]21 | -5 | -18 | -0.5 | -2.2 | nt | -3 | -13 | i | nt
C/C(=N\NC(=O)c1ccc(CN2CCc3ccccc3C2)cc1)c1ccccc1O | -29 | -25 | -14 | 2.6 | 2% | 2 | 3.8 | i | nt
COc1ccccc1C(CNC(=O)c1cccc(S(=O)(=O)N2c3ccccc3CC2C)c1)N(C)C (centres undefined) | -4 | -13 | 19 | 3.0 | nt | nt | 5.3 | i | 0.71
C[C@@H]1CN([C@H](C)CO)C(=O)c2cc(C#C[C@@H](C)O)cnc2O[C@H]1CN(C)C(=O)CN1CCOCC1 | 1 | 8 | -5.3 | nt | nt | nt | -2.4 | i | nt
N#C/C(=C\c1ccc(-c2ccccc2[N+](=O)[O-])o1)C(=O)N1CCOCC1 | -12 | -11 | 9.7 | -2.5 | 7% | -35 | 4.7 | i | 0.7
COc1cc(C2C3=C(CC(C)(C)CC3=O)Nc3c2c(=O)[nH]c(=O)n3Cc2ccccc2)ccc1O (centres undefined) | nt | nt | nt | 0.8 | 19% | nt | nt | nt | 0.69
CN(C)C(=O)c1ccc(-c2ccc3c(c2)[C@@H]2[C@@H](CCN2C(=O)C2CCOCC2)[C@H](CO)N3C)cc1 | 5 | 4 | -2.7 | nt | nt | nt | -3.1 | i | nt
COc1cc(OC)c(OC)cc1/C=C1\CC(C)C/C(=C\c2cc(OC)c(OC)cc2OC)C1=O (centres undefined) | -22* | -15* | 5.7* | 58* | -3% | -16 | 18 | i | 0.68
Cc1ccc(-n2nc(C)c(/C=N/NC(=O)c3cccs3)c2Cl)cc1 | -6 | 6 | -1.7 | 0.1 | 13% | nt | -15 | i | nt
CCOC(=O)N1CCN(C(=S)NC(=O)c2cccc(OC)c2)CC1 | nt | nt | nt | -1.0 | nt | -3 | -0.6 | i | 0.68

Only part of the results is shown, so the mix of outcomes need not match the whole.
